# PINK1 modulator – A Quantitative High throughput Screen to Identify Chemical Modulators of PINK1 Expression. AID 624263, 2012. 0.2% of 410,000 active. Potency, µM (top dose mostly 76.6 µM), for inactives: at the highest dose activation (PINK1 increase), usual class: activators. PINK1 immunofluorescence, high-content cytometry, 24 h; active = well fitted activation curve with a large enough effect; inconclusive = small, poorly fitted or top-dose-only effect; inactive = flat fitted curve, though single readings scatter; cell line not stated here;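 note: potency is the fitted concentration of half-maximal effect; % of control where 0% means no effect; nearly all actives have a fitted effect of over 65% in size; a mitochondrial uncoupler was the plate control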
#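 Readout is PINK1 immunofluorescence, quantified alongside mitochondrial, cell and nuclear markers by laser-scanning microplate cytometry. Cells from a stable line were exposed to compound titrations (5 concentrations) for 24 hours, with CCCP controls.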
# TRPML1 inh – qHTS for Inhibitors of the Human Mucolipin Transient Receptor Potential 1 (TRPML1). activity change, negative = inhibition, % (no concentration beside the values). AID 624415, 2012. 0.02% of 390,000 active. Mucolipin-1 (Homo sapiens), Q9GZU1. TRPML1-inducible cells, Ca2+ dye fluorescence, FDSS; hits give low values; inhibition of EC80 agonist-evoked calcium signal; in the data active means activity change below about -50%; inconclusive means about -30% to -50%; inactive means above about -30%;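 note: stimulus is agonist 54-4 at its EC80 concentration; % is set by controls: 0 for no effect and ±100 for the full control effect; compound concentration not given in the record; the text of the record puts the active cut at -80%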
#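 Tet-induced TRPML1-DL cells loaded with Ca8 no-wash calcium dye were read kinetically on FDSS. Compound addition was followed by EC80 agonist 54-4 (4 uM final); inhibition was read over 110 s.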
# ClpP mod – qHTS Assay for Activators of ClpP | purified B. subtilis ClpP, FRET peptide cleavage, 20 min | Potency, µM (highest dose often 57.5 µM), for inactives: at the top dose activity change, negative = active | 1.9% of 340,000 active | AID 651965, 2013; active = well fitted falling curve with a large enough effect; inconclusive = small, poorly fitted or top-dose-only effect; inactive = no such curve, though single readings can be large or run the other way; note: potency is the fitted concentration of half-maximal effect; the source files actives as falling curves though it sought activators and does not explain the sign; nearly all actives have a fitted effect of over 65% in size; many hits overshoot -100%
# Target sequence (P80244 whole entry, looked up): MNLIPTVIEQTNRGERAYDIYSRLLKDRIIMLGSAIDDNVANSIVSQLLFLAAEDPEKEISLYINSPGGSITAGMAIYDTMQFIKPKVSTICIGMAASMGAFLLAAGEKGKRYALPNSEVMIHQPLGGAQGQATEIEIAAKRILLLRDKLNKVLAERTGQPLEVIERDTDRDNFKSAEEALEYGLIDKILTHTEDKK
#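 FRET quenching reversal measured ClpP activation: 10 microg/mL B. subtilis ClpP at pH 8 with the FRET-FV decapeptide, read at 430 nm after 320 nm excitation. The 20-min minus 0-min signal was scaled between DMSO/no-enzyme wells and ADEP (5.8 microM final).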
# TRPV1 PAM – HTS Assay for Compounds that Act as Potentiators of the Vanilloid Receptor 1; TRPV1-expressing cells, Fluo-8 calcium influx, capsaicin EC20 potentiation; host cell line not named in the record; control for the full effect not named in the record; potentiation, % at 8.33 µM; Transient receptor potential cation channel subfamily V member 1 (Homo sapiens), Q8NER1; 0.02% of 320,000 active; active means potentiation above 80%; inconclusive means 30% to 80%; inactive means below 30%; note: 0% is about no effect
# Target sequence (Q8NER1 whole entry, looked up): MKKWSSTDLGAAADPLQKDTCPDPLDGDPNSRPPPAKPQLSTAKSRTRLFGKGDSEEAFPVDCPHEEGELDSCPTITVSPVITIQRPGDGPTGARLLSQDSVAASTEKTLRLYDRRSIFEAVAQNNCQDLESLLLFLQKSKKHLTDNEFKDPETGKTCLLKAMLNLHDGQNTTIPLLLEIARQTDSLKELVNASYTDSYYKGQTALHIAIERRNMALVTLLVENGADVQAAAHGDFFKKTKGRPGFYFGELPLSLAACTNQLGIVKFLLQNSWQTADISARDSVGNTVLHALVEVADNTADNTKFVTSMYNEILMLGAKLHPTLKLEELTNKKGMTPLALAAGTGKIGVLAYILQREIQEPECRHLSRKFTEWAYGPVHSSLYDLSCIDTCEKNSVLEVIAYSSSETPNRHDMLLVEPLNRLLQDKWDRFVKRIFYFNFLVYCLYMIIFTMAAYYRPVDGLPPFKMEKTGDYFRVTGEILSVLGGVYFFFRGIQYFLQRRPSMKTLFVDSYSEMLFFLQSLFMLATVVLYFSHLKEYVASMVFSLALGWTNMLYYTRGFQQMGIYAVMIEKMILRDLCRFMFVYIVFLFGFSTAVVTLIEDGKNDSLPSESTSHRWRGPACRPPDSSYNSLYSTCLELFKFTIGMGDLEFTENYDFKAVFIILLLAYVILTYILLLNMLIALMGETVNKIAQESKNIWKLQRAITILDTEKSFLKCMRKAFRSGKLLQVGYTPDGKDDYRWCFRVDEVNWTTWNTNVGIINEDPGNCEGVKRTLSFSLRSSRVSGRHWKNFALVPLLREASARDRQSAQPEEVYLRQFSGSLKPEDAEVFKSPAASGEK
#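 TRPV1-expressing cells were cultured overnight at 35.5C and loaded with Fluo-8 calcium dye for 40 to 90 min at room temperature. After a 10 s baseline, compound was added and calcium influx was read kinetically for 3 min (ex 480/em 520 nm).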
# Menin-MLL FL inh – qHTS Assay for Inhibitors Targeting the Menin-MLL Interaction in MLL Related Leukemias: Competition With Fluorescein Labeled MLL-derived Peptide; FP activity change, % at 61.4 µM; 290,000 tested, under 10 active; Fluorescence polarization, fluorescein-MLL peptide displacement from menin; AID 1766, 2009; inconclusive = falling polarisation curve, or a change in total fluorescence; inactive = total fluorescence flat and polarisation flat or rising; no compound was filed as active; the % refers to the polarisation; negative = inhibition;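 note: % of control where 0% means no effect; inhibitors lower the polarisation; unlabelled MLL peptide was the positive control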
# Sfp inh – qHTS Assay for Inhibitors of Bacillus subtilis Sfp phosphopantetheinyl transferase (PPTase). 3.5% of 310,000 active. AID 1490, 2009. Biochemical Sfp PPTase activity, qHTS. Potency, µM, without a hit: max response, negative = inhibition, hits mostly inhibitors; active = well fitted inhibition curve with a large enough effect; inconclusive = small, poorly fitted or top-dose-only effect, or another doubt; inactive = no such curve, though single readings can be large or run the other way;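 note: the enzyme is Sfp with the accession as filed and its product quenches rhodamine fluorescence; potency is the fitted concentration of half-maximal effect; 0% = enzyme reaction without inhibitor and -100% = no enzyme wells; top concentration of the series not given in the record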
#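 Compounds were incubated with enzyme (final 15 nM) for 15 min at room temperature before substrate addition started the reaction. Fluorescence at 525 nm excitation, 598 nm emission was recorded immediately and after 30 minutes.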
# TRPML1 ag – qHTS for Agonists of the Human Mucolipin Transient Receptor Potential 1 (TRPML1); TRPML1-expressing cells, Ca2+ dye fluorescence, FDSS; host cell line not named in the record; reference of the full effect not given here; 0.12% of 410,000 active; activation, % (concentration not given with the values); Mucolipin-1 (Homo sapiens), Q9GZU1; in the data active = activation above about 50%; inconclusive = about 30% to 50%; inactive = below about 30%; note: 0% is about no effect; the text of the record puts the active cut at 80%
#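 Calcium fluorescence on an FDSS kinetic reader gave the read-out. Tet-induced TRPML1-DL cells were plated overnight, dye-loaded (Ca8 with quencher, 45-90 min, room temperature, dark), then read 110 s after compound addition, and again 110 s after 4uM final 54-4 (EC80).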
# * = called active by the depositor; u = inconclusive; x = not tested or not shown; & = joins results of further samples; [ ] = another dose, or the depositor's remark. Random draw from the library (roughly 4.4% active in at least one column).
SMILES,PINK1 modulator,TRPML1 inh,ClpP mod,TRPV1 PAM,Menin-MLL FL inh,Sfp inh,TRPML1 ag
Cc1occc1C(=O)Nc1c(F)c(F)c(F)c(F)c1F,-1.3%,-10.5,-0.3%,13.9,3.0,-5.1%,-1.6
Cc1ccccc1C(=O)N1CCC(C(=O)Nc2ccc(C)c(S(=O)(=O)N3CCCCC3)c2)CC1,0.4%,13.4,1.8%,9.0,x,x,1.1
CN(C)C(=O)COC(=O)c1cccnc1Nc1ccccc1F,-1.3%,0.0,1.8%,-15.1,-1.6,-6.6%,-1.2
CC(C)(C)NC(=O)C[C@H]1C[C@H](C(=O)N2CCCCC2)[C@@]2(C)c3[nH]c4ccc(Cl)cc4c3CCN2C1=O,-0.8%,-9.4,-3.7%,x,x,x,1.7
Cn1c(CC(=O)Nc2ccccc2)n[nH]c1=S,1.0%,-27.3,-0.7%,3.7,-0.5,6.7%,0.0
O=C1CN(C(=O)C2CCCC2)CCN1,2.0%,6.8,0.8%,u,6.6,10.8%,0.2
COc1ccc(C(=O)Nc2ccccc2C(=O)N2CCOCC2)cc1OC,2.0%,4.5,x,12.9,-2.7,8.8%,-0.6
CCCc1cc(CN(C)C(=O)c2ccc(OC3CCN(C(C)=O)CC3)c(OC)c2)[nH]n1,1.0%,-1.2,0.0%,x,x,x,-0.2
Cc1ccc2nc3c(cc(C(=O)NCC4CCCO4)n3C)c(=O)n2c1 (configuration not stated),x,x,x,-18.3,2.0,-4.1%,x
COc1cc(OC)cc(N2C(=O)CC(N3CCC(C(=O)N4CCCCC4)CC3)C2=O)c1 (configuration not stated),0.2%,3.2,1.4%,-5.0,x,7.6%,0.6
COc1ccc(-c2nc(=S)c3c([nH]2)Oc2ccc(C)cc2C3)cc1O,16.5%,-16.3,-4.0%,0.2,2.3,-6.3%,0.0
O=c1c2ccccc2c(C=NCc2ccccn2)c(O)n1-c1ccccc1,14.7%,-3.3,-14.4%,-5.3,x,14.6%,-0.5
CCN(CC)S(=O)(=O)c1ccc(Cl)c(NC(=O)c2ccncc2)c1,-0.4%,26.8,x,5.7,0.0,2.8%,-0.8
COc1ccc(-c2cc(CNC(=O)CN3CCN(C)CC3)on2)cc1,0.2%,11.5,2.2%,20.6,0.6,23.3%,-0.6
Cc1ccc(S(=O)(=O)N2CCN(c3ccc(C(=O)N4CCOCC4)cc3[N+](=O)[O-])CC2)cc1,11.2%,2.6,28.2µM*,-4.4,-2.7,-4.0%,0.9
COc1ccc(Cl)cc1NC(=O)CSc1sc2c(O)cc(=O)[nH]c2c1C#N,-0.7%,2.4,x,-6.6,25.6,-28.6%,-0.3
Cc1ccccc1OCCn1cc(C=O)c2ccccc21,-1.1%,2.1,-5.1%,2.4,-0.2,3.4%,0.8
COc1ccc(N2C(=O)CC2(C#N)c2ccc(OCc3ccccc3)cc2)cc1 (configuration not stated),0.1%,1.2,-0.9%,12.8,2.6,14.0%,1.2
Cc1cccc(N=N/C(=C\O)C(=O)c2cccs2)c1,1.7%,-7.1,x,-1.2,2.1,-22.8%,0.8
Cc1cc2ccccc2c(=O)n1CC(=O)NCC1COc2ccccc2O1 (configuration not stated),1.2%,4.6,25.1µM*,17.4,3.7,6.2%,2.2
C(=C1c2ccccc2Oc2ccccc21)c1ccccc1,1.9%,x,-8.5%,x,x,x,-0.3
COc1ccc(OC)c(NC(=O)COC(=O)/C=C/c2ccc(Cl)cc2)c1,4.7%,2.7,1.1%,12.2,6.4,17.5%,-0.4
CCOC(=O)c1c(S(=O)(=O)NCC(=O)Nc2ccccc2)c(C)n(C)c1C,0.6%,-11.4,0.3%,7.4,x,10.3%,-0.4
COc1ccccc1CNC(=O)CCCn1nc(C)c2c(C)n(-c3ccc(C)cc3)nc2c1=O,2.3%&-0.4%,1.9&-22.9,0.9%&1.3%,-18.9,-1.8,6.5%,1.1&1.9
CC(CNC(=O)CN1C(=O)COc2ccc(S(=O)(=O)N3CCCCC3)cc21)c1ccccc1 (configuration not stated),0.6%&-0.6%,2.4&10.7,-2.5%&-1.4%,2.3,x,8.0%,1.6&2.2

# Part of the list above in order of SMILES length, smallest number first.
SMILES,PINK1 modulator,TRPML1 inh,ClpP mod,TRPV1 PAM,Menin-MLL FL inh,Sfp inh,TRPML1 ag
CN(C)C(=O)COC(=O)c1cccnc1Nc1ccccc1F,-1.3%,0.0,1.8%,-15.1,-1.6,-6.6%,-1.2
COc1ccc(C(=O)Nc2ccccc2C(=O)N2CCOCC2)cc1OC,2.0%,4.5,x,12.9,-2.7,8.8%,-0.6
COc1ccc(-c2nc(=S)c3c([nH]2)Oc2ccc(C)cc2C3)cc1O,16.5%,-16.3,-4.0%,0.2,2.3,-6.3%,0.0
COc1ccc(Cl)cc1NC(=O)CSc1sc2c(O)cc(=O)[nH]c2c1C#N,-0.7%,2.4,x,-6.6,25.6,-28.6%,-0.3
CCCc1cc(CN(C)C(=O)c2ccc(OC3CCN(C(C)=O)CC3)c(OC)c2)[nH]n1,1.0%,-1.2,0.0%,x,x,x,-0.2
CC(CNC(=O)CN1C(=O)COc2ccc(S(=O)(=O)N3CCCCC3)cc21)c1ccccc1 (configuration not stated),0.6%&-0.6%,2.4&10.7,-2.5%&-1.4%,2.3,x,8.0%,1.6&2.2
Cc1ccc(S(=O)(=O)N2CCN(c3ccc(C(=O)N4CCOCC4)cc3[N+](=O)[O-])CC2)cc1,11.2%,2.6,28.2µM*,-4.4,-2.7,-4.0%,0.9
CC(C)(C)NC(=O)C[C@H]1C[C@H](C(=O)N2CCCCC2)[C@@]2(C)c3[nH]c4ccc(Cl)cc4c3CCN2C1=O,-0.8%,-9.4,-3.7%,x,x,x,1.7

# Next results
SMILES,PINK1 modulator,TRPML1 inh,ClpP mod,TRPV1 PAM,Menin-MLL FL inh,Sfp inh,TRPML1 ag
CCN1CCN(C(=O)c2ccc(Cl)c(S(=O)(=O)N3CCCCC3)c2)CC1,1.4%,7.3,-0.6%,-7.7,x,4.1%,0.6
COc1ccc(CNC(=O)CC2C[C@H](C(=O)N3CCCCC3)[C@@]3(C)c4[nH]c5ccccc5c4CCN3C2=O)cc1OC (some centres not stated),-0.3%,9.8,-5.2%,x,x,x,-0.1
Cc1occc1-c1nnc(SCC(=O)Nc2ccccc2N2CCCCC2)n1C,2.1%,6.2,-4.7%,-15.1,-1.0,-15.3%,2.9
O=C(CN1C(=O)C(=O)N(Cc2ccco2)C1=O)c1c[nH]c2ccccc12,-0.5%,-2.7,-3.4%,6.0,1.5,u,-0.3
COc1ccccc1CNC(=O)CCC(=O)N1CC2CCCN2c2ccccc21 (configuration not stated),1.5%,-13.1,-1.5%,x,x,x,0.2
CCN(CC)CCNC(=O)C1(O)c2cc(Br)ccc2NC(=O)N1c1ccccc1 (configuration not stated),-2.1%,-13.7,-0.5%,19.6,6.1,-0.4%,1.2
COc1ccccc1C(=O)NC(=O)COC(=O)Cc1ccc(F)cc1,1.1%,-3.5,-12.4%,0.9,x,x,1.0
COc1ccccc1Nc1nc(Cl)nc(Nc2ccccc2OC)n1,8.0%,7.2,x,-3.0,0.3,3.2%,2.5
CC(C)CN(C(=O)c1cc(Cl)nc2ccccc12)c1c(N)n(Cc2ccccc2)c(=O)[nH]c1=O,8.0%,12.3,3.8%,20.3,x,x,0.7
Clc1ccc(-c2nnc(Sc3nc4ccccc4o3)c3ccccc23)cc1,3.4%[38.3 µM],72.2,0.1%,-5.9,-2.7,-18.6%,0.0
O=S1(=O)CC(N2CCN(CCO)CC2)CN1Cc1cn(Cc2cccc(C(F)(F)F)c2)nn1 (configuration not stated),1.2%,x,-0.6%,x,x,x,-0.1
CN(C)CCCNc1ncnc2oc(-c3ccccc3)c(-c3ccccc3)c12,-2.7%,15.4,-1.1%,2.8,1.2,-3.3%,0.3
COc1ccc(CCC(=O)N2CCCC(Nc3ccc(OC)cc3)C2)cc1 (configuration not stated),0.2%,10.2,-2.2%,-20.8,4.6,12.9%,-0.6
C=CCNC(=S)N/N=C(\C)c1cccc(OC)c1,1.2%,8.5,u,-15.3,7.4,5.2%,0.6
Cc1cc(C)c2oc(-c3ccc(NC(=O)c4cc(Br)ccc4Cl)cc3)nc2c1,1.6%,12.8,20µM*,x,x,x,0.3
CCC(=O)c1ccc(OC(=O)c2cccs2)cc1,0.2%,12.6,-1.0%,x,x,x,0.8
CC(=O)Nc1cc(C(=O)CSc2nnc(C3CC3)n2C2CC2)ccc1O,1.1%,-11.1,-4.8%,-1.9,x,x,-0.6
CCN(CC)CCOc1ccc2nc(N(C)C)sc2c1,-2.0%,13.9,-4.2%,9.5,2.1&2.0,4.1%&-19.3%,3.3
CCOC(=O)N1CCN(S(=O)(=O)c2ccc(OC)cc2)CC1,3.7%,-8.5,-1.3%,u,0.7,-1.3%,0.1
Cc1cc(C)c(S(=O)(=O)Nc2nnc(CC(C)C)s2)c(C)c1,-1.6%,2.2,1.5%,9.0,0.2,-1.1%,0.3
COc1ccc(S(=O)(=O)Nc2ccc3c(c2)sc(=O)n3C)cc1Cl,1.5%,25.3,-3.6%,x,x,x,1.5
CN(C)/C=C/C(=O)c1ccc2noc(-c3cccc(F)c3)c2c1,-1.4%,2.9,1.3%,-1.2,-0.4,7.2%,0.5
COc1ccccc1NS(=O)(=O)c1ccc(C(=O)NCCCN2CCCC2=O)cc1,3.7%,7.3,0.3%,-2.0,x,x,-0.7
CN(C)CCCN(C(=O)COc1ccc(Cl)cc1)c1nc2cc3c(cc2s1)OCO3,-1.9%,8.7,-2.2%,5.7,-1.8,-10.0%,1.5
COC(=O)C1CCCCN1C(=O)c1cc(COc2cccc3cccnc23)on1 (configuration not stated),0.6%,-5.4,-20.2%,18.5,x,-2.0%,0.0
CCOC(=O)CSc1nnc2c3ccccc3n(C)c2n1,0.2%,-4.3,u,-5.7,-0.5,-3.8%,-0.7
Cc1ccc(/C=C2/SC(=Nc3ccc(F)cc3)NC2=O)s1,14.5%,-9.8,x,2.5,u,12.3%,-0.4
